Compound activity deposited in PubChem BioAssay by several laboratories.
HIV Env fusion: inhibitors of HIV Env-mediated cell fusion; HeLa-JRFL Env/CEM21 cell fusion, luciferase; inhibition, % at 12.3 µM; 360,000 tested, 1.1% active; AID 651610;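 active = mean replicate inhibition score of at least 50 and every replicate individually at or above 50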;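 also: 0% = plate neutral controls and 100% = maraviroc near 300 nM; one replicate is shown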
eIF4H inh: inhibitors of RNA binding by human eIF4H | 290,000 tested, 0.94% active | inhibition, % at 35 µM | Q15056 | eIF4H fluorescence polarization binding assay;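 active = 50% or more with normal probe brightness, or confirmed in later tests; about a fifth of its hits are not listed in these tables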;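 also: calls also rest on retests at 20 µM and on dose response follow-up; 0% = protein and probe with vehicle and 100% = probe without protein; strong numbers were not always called active; many hits fall short of the cut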
MT1-MMP act inh: inhibitors of human MT1-MMP activation | GFP/RFP ratio change, % at 20 µM | P50281 | HT1080 RFP-PRO-GFP cells, GFP/RFP ratio fluorescence, overnight; percent of plate control window, DMSO zero | 360,000 tested, 0.061% active | AID 651647;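 active = GFP/RFP ratio change of at least 30% with cell ATP level not reduced by more than half and red fluorescence within 50% of control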; also: strong numbers were not always called active
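Material: RFP-PRO-GFP reporter HT1080 cells. Dosing: single-point 20 µM compound, 1% DMSO. Controls: DMSO and RFP-L50D-GFP cell wells. Timing: cells overnight before dosing, compound overnight, 37 °C, 5% CO2. Measure: GFP/RFP fluorescence ratio.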
Yeast UUG start: alters start codon recognition fidelity in yeast. S. cerevisiae UUG-firefly luciferase reporter, luminescence/redox ratio. activity score, % at 18.7 µM. 350,000 tested, 0.13% active;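 active = replicate mean at a twofold rise or more, about +100% in these data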;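 also: firefly luciferase made from a UUG start codon reports start codon fidelity; reporter light over untreated wells divided by growth signal over untreated wells; some hits fall short of that in this replicate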
Rce1 inh: yeast Ras-converting enzyme inhibition; 290,000 tested, 0.27% active; yeast membranes, quenched prenylated peptide cleavage fluorescence; calls only;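 active = fall in fluorescence gain of 50% or more versus controls, with final raw signal at or below 3038400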;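 also: plate controls were neutral control wells for no effect and wells lacking membranes for full effect; tested at 10 µM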
Target sequence (Q03530 whole entry, looked up): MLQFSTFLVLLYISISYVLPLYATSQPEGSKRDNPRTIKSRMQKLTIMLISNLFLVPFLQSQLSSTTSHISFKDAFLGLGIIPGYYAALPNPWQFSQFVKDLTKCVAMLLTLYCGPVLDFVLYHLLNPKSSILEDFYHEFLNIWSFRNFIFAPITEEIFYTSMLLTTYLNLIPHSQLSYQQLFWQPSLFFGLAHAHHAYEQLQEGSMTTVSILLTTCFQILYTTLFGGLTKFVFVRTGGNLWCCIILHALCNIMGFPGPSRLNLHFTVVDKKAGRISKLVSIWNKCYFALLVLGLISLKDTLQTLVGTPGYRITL
PABP FP inh: PABP-poly(A) binding inhibition; P11940; PABP-poly(A) RNA binding, fluorescence polarization; inhibition, % at 35 µM; 290,000 tested, 1% active;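 active = 50% or more with normal probe brightness, or confirmed in later tests; about a fifth of its hits are not listed in these tables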;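 also: calls also rest on retests at 20 µM and on dose response follow-up; controls were probe without protein and protein plus probe with vehicle; some compounds called inactive have numbers as strong as hits; many hits fall short of the cut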
CSC inhib: blocks cancer stem cells. cancer stem cell-like cells viability, luminescence. inhibition, % at 7.5 µM. 300,000 tested, 1.1% active. AID 2717;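 active = mean at 75% or more and at least half the replicates too; tested in HMLE shEcad cells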;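 also: 0% = median of negative and 100% = median of positive control wells; the first replicate is given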
eIF4H inh retest: second read-out of eIF4H inh, no call of its own (marks repeat the call); inhibition, %; compound at 20 µM; confirmation average;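 mean of two retest wells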
PABP FP inh retest: recorded beside PABP FP inh, whose call it bears; inhibition, %; compound at 20 µM; confirmation repeats;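 mean of two retest wells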
MT1-MMP act inh RFP: also measured in MT1-MMP act inh; calls as there; RFP signal change, %; measured here: RFP expression control read;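 0 = vehicle wells; hits needed this value within 50% of zero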
An asterisk follows results filed as active; i = inactive; x = not tested or not shown; & = joins results of further samples; [ ] = dose if it differs, or a comment.

SMILES	HIV Env fusion	eIF4H inh	MT1-MMP act inh	MT1-MMP act inh RFP	Yeast UUG start	Rce1 inh	PABP FP inh	CSC inhib	others
CCc1nc2c(OCc3ccccc3C(=O)OC)cccn2c1N(C)C(=O)c1cccc(OC)c1	9	x	-9	-6	-10	x	x	x
Cn1cccc1C(=O)OCC(=O)Nc1ccc2[nH]c(=O)[nH]c2c1	x	x	-1	2	-20	x	x	15
CC1CN(C(=O)C2CCCN2S(=O)(=O)c2ccc(Cl)cc2)CC(C)O1 (stereo unspecified)	x	5	4	4	-16	i	10	-20
CC(C)c1ccccc1NC(=O)COC(=O)c1cccnc1	3	-8	1	11	-10	x	3	-13
CN1CCN(C(N)=NC(=O)c2ccccc2)CC1	0	-2	0	5	x	i	11	-3
Cc1ccc(S(=O)(=O)n2nc(-c3cccnc3)nc2N)cc1	-18	-10	3	1	-10	i	2	-17
Cc1ccc(NC(=O)CSc2nnc3ccccn23)cc1S(=O)(=O)N1CCOCC1	-8	-4	1	3	-13	i	70	-14	eIF4H inh retest=36;PABP FP inh retest=3
Cn1c(=O)[nH]c(=O)c2c1nc(CN1CCOCC1)n2CCc1ccccc1	x	3	3	1	-16	i	0	x
C=CCNC(=O)c1onc(CSc2cccc3ccccc23)c1C(=O)O	-24	-3	4	3	15	i	2	57
COC(=O)c1ccccc1NC(=O)C1CCN(S(=O)(=O)c2cc(OC)ccc2OC)CC1	3	1	1	0	-12	i	2	x
O=C(NCCO)NC(=S)c1ccccc1	-34	4	1	2	-18	i	7	x
CN(C)c1ccc(/C=N\S(=O)(=O)c2ccccc2)cc1	-8	-4	-1	8	x	i	-7	11
COC(=O)CN1C(=S)N(c2ccc(OC)cc2)C(=O)/C1=C/c1ccc(OC)cc1	-83	6	-2	-8	x	x	12	-17
NNC(=O)C1COc2cc3ccccc3cc2O1 (stereo unspecified)	-3	-8	1	2	-19	i	-2	3
CCN1CCN(S(=O)(=O)c2ccc(Cl)c(C(=O)Nc3nnc(CC(C)C)s3)c2)CC1	x	-6	-2	-12	-4	i	-6	5
Cc1c(C)n2c3c(cccc13)CC2	-2	-10	-2	1	-3	i	-83	-17
COc1ccc(OCCn2cc(/C=C(\C#N)C(=O)NCc3ccco3)c3ccccc32)cc1	-9	2	2	-3	-9	i	-2	2
CC(C)CC(NC(N)=O)C(=O)Nc1ccc(Oc2ccccc2)cc1 (stereo unspecified)	8	2	0	-7	x	i	-7	3
Cc1cc(C2=NNC(=NC3CCCCC3)SC2)c(C)n1-c1c(C)n(C)n(-c2ccccc2)c1=O	-25	-4	-4	1	-15	i	-3	-9
COC(=O)/C(=C(O)\C=C\c1ccccc1[N+](=O)[O-])c1nc2ccccc2[nH]1	2	-6	-1	-1	-18	i	5	x

Next part; the last 3 above are carried over.
SMILES	HIV Env fusion	eIF4H inh	MT1-MMP act inh	MT1-MMP act inh RFP	Yeast UUG start	Rce1 inh	PABP FP inh	CSC inhib	others
CC(C)CC(NC(N)=O)C(=O)Nc1ccc(Oc2ccccc2)cc1 (stereo unspecified)	8	2	0	-7	x	i	-7	3
Cc1cc(C2=NNC(=NC3CCCCC3)SC2)c(C)n1-c1c(C)n(C)n(-c2ccccc2)c1=O	-25	-4	-4	1	-15	i	-3	-9
COC(=O)/C(=C(O)\C=C\c1ccccc1[N+](=O)[O-])c1nc2ccccc2[nH]1	2	-6	-1	-1	-18	i	5	x
Cc1cc(C)c(C)c(S(=O)(=O)N2CCN(Cc3nc4ccccc4[nH]3)CC2)c1C	-56	5	0	-5	-24	x	3	12
O=C(CSc1ccc2ccccc2c1)NCc1cccs1	1	2	1	4	x	i	-2	2
c1coc(-c2nnc(-c3ccc4c(c3)OCO4)o2)c1	x	34	x	x	x	i	2	x
O=C(C1CCCC1)N1CCCC(Nc2ccc(F)cc2)C1 (stereo unspecified)	-1	3	2	4	-11	i	-8	1
CCOC(=O)C1(CCOC)CCN(Cc2ccccc2-c2ccco2)CC1	6	18	-5	-3	x	i	-12	-1
CCc1cc(Cn2nc(-c3ccccc3)cc2C(=O)O)on1	-17	x	5	3	-14	i	x	6
Cn1c(=O)n(C)c2cc([N+](=O)[O-])c(N3CCN(S(=O)(=O)c4ccc5ccccc5c4)CC3)cc21	x	-9	8	-14	-16	i	24	1
Cc1ccc2c(c1)C(c1ccccc1)N(C(=O)c1cc3ccccc3oc1=O)CC(=O)N2 (stereo unspecified)	4	6	1	2	-15	i	-6	-16
Cc1sc(NC(=O)CSc2nnc(CCNC(=O)c3cccs3)n2C)nc1-c1ccccc1	-101	-7	-6	-2	-17	i	-2	-10
Cc1cccc(Nc2nc(N)c(C#N)c(CC#N)c2C#N)c1	-52	6	0	3	-15	i	-4	-4
CCCSc1ccc([C@H]2N[C@@](C)(C(=O)OC)[C@H]3C(=O)N(C)C(=O)[C@@H]23)cc1OC	-31	x	0	-3	-11	i	x	8
CC(=O)N1CCN(c2nnc(-c3ccc(C)cc3)c3ccccc23)CC1	17	-8	4	0	x	i	6	-16
O=S(=O)(Nc1nc2ccc(Cl)cc2s1)c1cccs1	x	-22	-1	0	-12	x	11	5
CC(=O)Nc1ccc2sc(NC(=O)CN3CCOCC3)nc2c1	-8	-4	-3	-3	-8	i	1	x
COCC(C)N1CC(O)=C(c2nc(-c3ccc(Cl)cc3)cs2)C1=N (stereo unspecified)	0	-12	1	-5	x	i	-1	-6
CCOc1cc(N2CCOCC2)c(OCC)cc1NC(=O)c1cc(S(=O)(=O)N2CCOCC2)ccc1F	x	x	-1	-1	2	x	x	4
O=C1c2ccccc2[C@@H]2C[C@@H](O)[C@H](Nc3ccccc3)CCN12	-8	x	1	5	-15	x	x	x
O=C(CSc1nc2ccccc2o1)c1ccccc1	x	3	0	1	-23	i	1	-6
C[C@@H]1CCCCO[C@@H](CN(C)Cc2ccc(Cl)c(Cl)c2)[C@@H](C)CN([C@H](C)CO)C(=O)c2cc(NC(=O)CCC(F)(F)F)ccc2O1	-51	x	-10	-15	2&6	x	x	x
Cc1nnc(-n2ncc(C#N)c2N)c2nn(-c3cccc(Cl)c3)c(C)c12	-73	-2	-5	-3	-18	i	8	10
COc1ccc(N(CC(=O)N2CCOCC2)S(C)(=O)=O)cc1Cl	-6	-13	0	4	-7	i	-3	-8
Clc1ccc(-[n+]2c(-c3cccc(Br)c3)[nH]c3nc4ccccc4nc32)cc1	0	-11	-6	-9	2	i	-9	-1
COc1ccc(CS(=O)(=O)CC(C)(O)c2ccccc2Cl)cc1 (stereo unspecified)	-2	-8	2	2	-13	i	-5	-9
CN(CCOc1ccccc1)C(=O)C1CCC(=O)N(CCc2ccc(Cl)cc2)C1 (stereo unspecified)	2	3	5	-5	9	i	3	-4
Cc1ccnc(NS(=O)(=O)c2ccc(NC(=O)CCc3ccccc3)cc2)n1	14	-6	-4	-3	-7	i	3	17
Cc1ccc(C2CC(=O)C=C(Nc3ccc(Cl)cc3)C2)cc1 (stereo unspecified)	12	13	-2	-2	x	i	-10	x
O=C(NNC(=S)Nc1ccc(Br)cc1)c1ccccc1Br	-27	6	3	0	-35	i	-6	10
CCn1cc(Br)c(C(=O)Nc2ccc(F)cc2F)n1	0	-7	-1	-2	x	i	7	-4
CN(C(=O)COC(=O)COc1ccc(Cl)cc1Cl)c1c(N)n(Cc2ccccc2)c(=O)[nH]c1=O	-8	x	-1	1	x	i	x	-9
COc1ccc(CN2C[C@@H](CO)O[C@@H](n3cnc4c(NCCCO)ncnc43)C2)cc1	13	x	-3	0	3	x	x	x
O=C(CSc1nc2ccc(Nc3nc(N4CCCC4)nc(N4CCCC4)n3)cc2s1)NCc1ccco1	15	5	7	-4	x	i	2	20
O=C(c1ccc(NS(=O)(=O)c2ccc(Cl)c(Cl)c2)cc1)N1CCOCC1	7	x	7	-1	-4	x	x	x
OCc1nnn(-c2cccc(C(F)(F)F)c2)c1CO	x	4	-2	2	-5	i	0	2
COc1ccccc1N(C)S(=O)(=O)c1ccc(Cl)c(C(=O)NCC2(N(C)C)CCCCC2)c1	95*	x	4	-7	-4	i	x	-8
Cc1ccccc1Cc1c(C)nc2nc(SCC(=O)NCCCN3CCCCC3)nn2c1C	x	0	-1	0	-20	x	2	-17
CC(=O)N1CCOc2ccc(S(=O)(=O)Nc3ccc(Cl)cn3)cc21	-30	-14	2	8	-5	i	-3	-8
CCc1cccc(NC(=S)Nc2cccc3ccccc23)c1	-32	5	2	9	-25	i	13	39
O=C(CCN1C(=O)/C(=C/c2ccccc2)SC1=S)Nc1cccnc1	-3	6	4	6	-17	i	5	0
OC(CN1CCCC1)Cn1ccc2ccccc21 (stereo unspecified)	-6	20	0	0	-4	i	23	7
O=S(=O)(Nc1ccccc1Cl)c1ccc(-c2ccccn2)s1	12	x	-1	0	0	i	x	8
CCOC(=O)c1nnn(-c2nonc2N)c1CS(=O)(=O)c1ccccc1	x	1	-2	-2	x	x	0	-9
COc1ccc2nc(NC(=O)CSc3nnnn3C)sc2c1	-28	-2	2	-3	x	i	10	-11
CCC(C)(C)NC(=O)C(c1ccc(OC)cc1)N(C(=O)CCC(=O)Nc1cc(C)on1)c1cc(OC)ccc1OC (stereo unspecified)	4	-12	-7	-2	17	i	12	14
CC(C)(C)C1CCC(C(=O)Nc2ccc(N3CCOCC3)cc2N2CCOCC2)CC1 (stereo unspecified)	-12	x	-3	-3	-5	x	x	x
CCCN1C(=O)N(C)C(N(O)C(=O)NC)C1(C)C (stereo unspecified)	x	-2	10	2	84	i	5	-7
CC(C)CNC1CCS(=O)(=O)C1 (stereo unspecified)	22	-4	3	4	-16	i	-2	0
Cc1cccc(NC(=O)CN2C(=O)N/C(=C\c3ccc(N4CCOCC4)cc3)C2=O)c1	x	-11	0	1	-22	i	-9	-27
Cc1ccc(-n2ncc3c2CCCC3NC(=O)CCc2c(C)noc2C)cc1C (stereo unspecified)	-1	-3	8	-9	-15	i	1	-1
O=C(C1=C[C@H](c2ccc(Br)cc2)C[C@H](OCCCCO)O1)N1CCN(Cc2ccc3c(c2)OCO3)CC1	4[16.7 µM]	-5	-2	-5	0&-8	i	-1	-18
Cc1cccc(N2C(=O)N(c3ccccc3C)C3CS(=O)(=O)CC32)c1 (stereo unspecified)	x	5	-3	2	-10	x	4	-17
COc1ccc(S(=O)(=O)N2CCC(C(=O)NCc3cccnc3)CC2)cc1Cl	2	-4	1	-1	-8	i	0	-8
O=C(CN1C(=O)/C(=C/c2ccc(Cl)cc2)SC1=S)NC1C=CS(=O)(=O)C1 (stereo unspecified)	-1	24	1	7	-19	i	-2	-1
Cc1cc(=O)n(-c2ccc(Cl)cc2)c(=O)[nH]1	13	3	1	3	-12	i	5	5
Cc1nn(Cc2c(F)c(F)c(F)c(F)c2F)c(C)c1NC(=O)c1c([N+](=O)[O-])cnn1C	-38	-4	-7	-4	x	i	-11	-15
Cc1ccccc1NC(=O)CC1SC(=O)N(c2ccccc2)C1=O (stereo unspecified)	-122	2	-1	6	-15	i	11	-6
C[C@@H]1CN([C@H](C)CO)C(=O)c2cc(NC(=O)Nc3ccc(F)cc3)ccc2O[C@@H](C)CCCCO[C@H]1CN(C)S(=O)(=O)c1ccc(Cl)cc1	22[16.7 µM]	x	1	-9	-1&-17	x	x	x
O=C(NCC(c1ccco1)N1CCCCC1)c1cnc(Cl)c(Cl)c1 (stereo unspecified)	x	x	1	2	-8	x	x	-2
CC(=O)c1c(C)nc(-c2ccc(Cl)cc2)nc1N=CN(C)C	x	14	7	5	x	i	17	-21
CC1(C)CC2(CCCN3C(=O)CSC32)CCS1 (stereo unspecified)	x	1	1	1	-10	i	-6	2
Cc1ccc(OCCOCCn2cnc3ccccc3c2=O)c([N+](=O)[O-])c1	-24	-6	4	-3	-10	i	-2	-14
